HSD17B inh: inhibitors of human HSD17B10 dehydrogenase; Q99714; recombinant HSD17B10, NADH fluorescence kinetic; many of its hits are not listed in these tables; AID 893; Potency, µM (titrated, usually from 57.1 µM), inactives show at the top dose activity change, negative = inhibition, most hits filed as inhibitors; hit rate 7.6% among 75,000; active = well fitted inhibition curve with a large enough effect; inconclusive = small, poorly fitted or top-dose-only effect; inactive = no such curve, though single readings can be large or run the other way;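 note: the protocol describes HADH2 (HSD17B10) and not the HSD17B4 of the title; nearly all actives have a fitted effect of over 70% in size; most hits overshoot -100% by far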
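20 nM HADH2, pH 9.0 Tris/Tween; cpd preinc 15 min RT; start w/ 1 mM NAD+ + 90 uM b-hydroxybutyryl-CoA; kinetic fluor ex360/em450 q30s x 4 min; delta last-first.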
The depositor's hits bear a star; ? = inconclusive; & = joins results of further samples; [ ] = remark or other dose. % is set by controls: 0 for no effect and ±100 for the full control effect; potency is the fitted concentration of half-maximal effect. A portion of the library. The share of hits here may be higher or lower than overall.

SMILES	HSD17B inh
C[C@@H](C(=O)Nc1ccc2ccccc2c1)[C@H]1C[C@]1(C)[C@H](NC(=O)OCc1ccccc1)c1ccccc1	?
C=CCn1c(SCC(=O)Nc2ccccc2OC)nnc1-c1ccco1	-2%
N[C@@H](CS(=O)O)C(=O)O	-6%
CC1CCN(c2nc3c(c(=O)[nH]c(=O)n3C)n2CCSc2nc3ccccc3o2)CC1	22%
COCCNC(=O)CN(C(=O)CCC(=O)Nc1cc(C)on1)c1ccccc1C	9%
COc1ccc2cc1Oc1ccc(cc1)CC1c3c(cc4c(c3Oc3cc5c(cc3OC)CCN(C)C5C2)OCO4)CCN1C (stereo unspecified)	13%
CCN(CC)S(=O)(=O)c1ccc(C(=O)NCc2nnc(SCC(=O)OC)n2C)cc1	12%
O=C(NCC(=O)N(Cc1cccs1)C(C(=O)NC1CCCC1)c1ccco1)c1cccs1 (stereo unspecified)	-1%
Cc1ccc2[nH]c(=O)c(CN(Cc3ccco3)S(=O)(=O)c3c(C)ccc4nsnc34)cc2c1	?
COc1ccc(N2CCN(CCNS(=O)(=O)c3cccc4nsnc34)CC2)cc1	0%
CCOc1ccc(NC2=NC(C)(C)N=C(N)N2)cc1	2%
CCC(=O)c1cc2c(cc1NC(=O)C(C)C)OCCO2	?
COc1ccc(C(CNC(=O)c2cccnc2SC)N2CCOCC2)cc1 (stereo unspecified)	8%
CSc1ccc2c(c1)N(CCCN(C)C)c1ccccc1S2	-1%[11.4 µM]
CCn1c(C(O)c2ccc3c(c2)OCO3)nc2ccccc21 (stereo unspecified)	-10%
CC(=O)c1cccc(NC(=O)Cc2cccs2)c1	-24%
CC(=O)Nc1ccc(S(=O)(=O)NC(=O)C23CC4CC(CC(C4)C2)C3)cc1	-2%
CCS(=O)(=O)N1Cc2ccccc2CC1C(=O)OCC(=O)Nc1ccc(C)cc1 (stereo unspecified)	0%
CC(C(=O)c1ccccc1)n1c(N2CCOCC2)nc2c1c(=O)n(C)c(=O)n2C (stereo unspecified)	4%
CCOC(=O)CSc1nnc([C@H](Cc2ccccc2)NC(=O)OC(C)(C)C)o1	0%
COc1cc(OC)cc(C(C)=O)c1	4%
CC(C)CN1CC2(CCN(C(=O)c3ccco3)CC2)C1	1%
CC(=O)OCC1OC(C#CCCCc2ccccc2)C=CC1OC(C)=O (stereo unspecified)	-9%&-5%[11.4 µM]
COc1cc(Cl)cc(NC(=O)CCN2CCN(C)CC2)c1	0%
Cc1c2cnn(-c3ccccc3)c(=O)c2c(C)n1CCCC(=O)N1CCN(C)CC1	-3%
c1ccc2c(c1)NC(CN1CCOCC1)CO2 (stereo unspecified)	10%
CCC1Oc2ccc(C)cc2N(CC(=O)NCCc2ccc(OC)c(OC)c2)C1=O (stereo unspecified)	3%
CCN(CC)CCn1c(=S)[nH]c2cc3c(cc2c1=O)OCO3	-17%
CC[C@H](C(=O)[C@H](C)[C@H](O)[C@H](C)CCc1ccc(C)c(O)c1C(=O)O)[C@H]1O[C@](CC)([C@@H]2CC[C@@](O)(CC)[C@H](C)O2)C[C@H]1C	1%[25.6 µM]
Cc1c(NC(=O)CCCCCN2C(=O)C3C4C=CC(C4)C3C2=O)c(=O)n(-c2ccccc2)n1C (stereo unspecified)	8%
Fc1ccc(Cn2nnc(-c3ccc(CN4CCOCC4)cc3)n2)cc1	2%
CC(C)NC(=O)Cn1cnc2c1c(=O)n(C)c(=O)n2C	3%
O[C@@H](COc1cccc2ccccc12)CN1CCOCC1	5%[11.4 µM]
COc1ccc(S(=O)(=O)N(C)CC(=O)NCc2cccnc2)cc1	-7%
O=C(Nc1cccc2nsnc12)c1ccc(F)cc1	5%
CN(Cc1nc2ccccc2c(=O)[nH]1)CC(O)COCc1ccco1 (stereo unspecified)	6%

Three records picked at random from those above, as already listed:
SMILES	HSD17B inh
Cc1c(NC(=O)CCCCCN2C(=O)C3C4C=CC(C4)C3C2=O)c(=O)n(-c2ccccc2)n1C (stereo unspecified)	8%
CN(Cc1nc2ccccc2c(=O)[nH]1)CC(O)COCc1ccco1 (stereo unspecified)	6%
Cc1c2cnn(-c3ccccc3)c(=O)c2c(C)n1CCCC(=O)N1CCN(C)CC1	-3%

Additional results.
SMILES	HSD17B inh
NC(=O)C1C(c2ccccc2)=C1c1ccccc1	4%
CCCCCN(C(=O)NC(=O)Nc1ccccc1OC)S(C)(=O)=O	1%
CCCn1c(-c2ccc(F)cc2)nc2c(N3CCCN(Cc4ccccc4)CC3)nc(C)nc21	32µM*
CC1CN(CC(O)COc2ccc(C(=O)c3ccccc3)cc2)CC(C)O1 (stereo unspecified)	4%
CCN(CC)S(=O)(=O)c1cc(C(=O)NC2CCCCC2)ccc1C	1%
CCC(=O)c1cccc2c1N=CC1=C(CC(C)(C)CC1=O)N2	2%
COc1ccccc1CNC(=O)COC(=O)C1=COCCO1	3%
O=c1c(-c2cccc(F)c2)nc2cncnc2n1Cc1ccccc1Cl	-20%
O=C(C1CCCCC1)N(Cc1nc2sc3c(c2c(=O)[nH]1)CCCC3)Cc1cccs1	?
Cc1ccc(Cl)cc1N1CCN(Cc2nnnn2C2CCCCC2)CC1	19%
O=C(Nc1cc(C(=O)Nc2ccc(S(=O)(=O)O)cc2S(=O)(=O)O)cc(C(=O)Nc2ccc(S(=O)(=O)O)cc2S(=O)(=O)O)c1)Nc1cc(C(=O)Nc2ccc(S(=O)(=O)O)cc2S(=O)(=O)O)cc(C(=O)Nc2ccc(S(=O)(=O)O)cc2S(=O)(=O)O)c1	0.79µM*
CCCn1c(C(O)c2ccc(OCC)cc2)nc2ccccc21 (stereo unspecified)	4%
CO/N=C\[C@@H](C)[C@H](OCc1ccccc1)C(C)C	-1%[11.4 µM]
O=C(OCC(=O)N1CCCC1)c1cccs1	13%
C/C(=N\n1nnnc1Nc1ccccc1)c1ccc(N)cc1	-1%
O=C(OCc1nc2ccccc2s1)c1cnccn1	-4%
Cc1cccc(OCC(=O)OCC(=O)c2c(N)n(C)c(=O)n(C)c2=O)c1	5%
COc1ccc(OC)c(Nc2nc(-c3sc(C)nc3C)cs2)c1	-6%
CCc1ccccc1NC(=O)CN(C)Cc1nc(N)nc(Nc2ccccc2C)n1	-5%
COc1cccc(-c2nc(CS(=O)CC(=O)NCc3ccccc3)c(C)o2)c1 (stereo unspecified)	-1%
CCOC(=O)c1cnc(-n2nc(C)cc2C)nc1NCc1ccccc1	25µM*
O=C(Nc1ccc(Cl)cn1)c1cc2ccccc2o1	-11%
O=C(O)C1CCCN1S(=O)(=O)c1cc(Cl)ccc1Cl (stereo unspecified)	3%
N[C@@H](C(=O)O)c1ccc(P(=O)(O)O)cc1	-11%
CN(C(=O)c1cccc(N2C(=O)C3CC=CCC3C2=O)c1)C1CCCCC1 (stereo unspecified)	3%
c1ccc(-c2nc3cc(Oc4ccc5oc(-c6ccccn6)nc5c4)ccc3o2)nc1	32µM*
CC(=NC(C)C)C1=C(O)CCC1=O	11%
Cc1ccnc(N2CCC(C(=O)Nc3ccc(Oc4ccccc4)cc3)CC2)n1	-3%
CCn1c(=N)n(CC(O)c2ccco2)c2ccccc21 (stereo unspecified)	11%
O=C(O)c1cc(Cl)c(Cl)cc1C(=O)N1CCCC1	6%
CCOC(=O)c1oc2ccccc2c1NC(=O)COc1cccc(OC)c1	-26%
Cc1nn(C/C(C#N)=N\O)c(C)[n+]1N	-7%
Cc1cc(=O)oc(C)c1C(=O)NCc1c(F)cc(F)cc1F	2%
O=C(c1cnccn1)N1CCC2(CC1)CN(c1ccccc1)C2	-2%
O=C(CSc1nnc(Cc2ccccc2)n1Cc1ccco1)NC12CC3CC(CC(C3)C1)C2	1%
CCOc1ccc(-c2nnn(CC(=O)c3ccc4c(c3)OCCO4)n2)cc1OCC	-21%

Structural class, the entries above with a halogen (10)
SMILES	HSD17B inh
COc1cc(Cl)cc(NC(=O)CCN2CCN(C)CC2)c1	0%
Fc1ccc(Cn2nnc(-c3ccc(CN4CCOCC4)cc3)n2)cc1	2%
O=C(Nc1cccc2nsnc12)c1ccc(F)cc1	5%
CCCn1c(-c2ccc(F)cc2)nc2c(N3CCCN(Cc4ccccc4)CC3)nc(C)nc21	32µM*
O=c1c(-c2cccc(F)c2)nc2cncnc2n1Cc1ccccc1Cl	-20%
Cc1ccc(Cl)cc1N1CCN(Cc2nnnn2C2CCCCC2)CC1	19%
O=C(Nc1ccc(Cl)cn1)c1cc2ccccc2o1	-11%
O=C(O)C1CCCN1S(=O)(=O)c1cc(Cl)ccc1Cl (stereo unspecified)	3%
O=C(O)c1cc(Cl)c(Cl)cc1C(=O)N1CCCC1	6%
Cc1cc(=O)oc(C)c1C(=O)NCc1c(F)cc(F)cc1F	2%

Other structures.
SMILES	HSD17B inh
Cn1c(=O)oc2cc(S(=O)(=O)NCC3CCCO3)ccc21 (stereo unspecified)	3%
CC(C)CO/N=C1/C[C@@H](O)[C@@H](O)[C@@H]2[C@@H]3C(=O)N(c4cccc(Oc5ccccc5)c4)C(=O)[C@H]3CC[C@H]12	-2%[11.4 µM]
CCCCOC(=O)NS(=O)(=O)c1sc(CC(C)C)cc1-c1ccc(Cn2c(CC)nc3c(C)cc(C)nc32)cc1	-12%
COc1cc(C(=O)NCC2CCCO2)ccc1OCc1c(C)noc1C (stereo unspecified)	0%
COC(=O)CSc1nnc(-c2ccccc2OC)o1	18%
Cc1ccc(C)c(-n2nnnc2Sc2nnnn2-c2ccccc2)c1	-5%
CC1(N2CCOCC2)CC2(O)C(=[N+]1[O-])CCc1nonc12 (stereo unspecified)	-12%
Cc1cc(S(=O)(=O)N2CCN(c3c(C)cccc3C)CC2)ccc1F	3%
C=CCSc1nc(C)c(CC(=O)OCC(C)C)c(=O)[nH]1	2%
O=C(NCCOc1ccccc1)c1cc2ccccc2o1	4%
COc1ccc(C(=S)N(C)C)cc1OC	-20%
O=C(COc1ccccc1)n1nc(-c2ccc(Cl)cc2)nc1NCc1ccco1	-11%
COc1ccc(OC)c(NC(=O)Cc2coc3ccc(C)cc23)c1	-23%
COc1ccc(S(=O)(=O)NCCc2csc(C)n2)cc1C	-3%
O=C(NCCc1ccccc1)C1CCCN(S(=O)(=O)c2cccnc2)C1 (stereo unspecified)	-12%
CN(C)C(=O)c1c(-c2ccccc2)oc2ccc(O)cc12	32µM*
COc1ccccc1C(CCN(Cc1cccs1)C(C)=O)c1ccco1 (stereo unspecified)	-28%
Cc1[nH]nc(N=CC2=C(O)CC(C)(C)CC2=O)c1-c1ccc(Cl)cc1	-29%
COc1ccc(S(=O)(=O)NCCC(=O)NCc2ccccc2)cc1	-2%
CCn1c(CC(=O)Nc2ccc(C)cc2)nnc1SCC(=O)NCc1ccccc1	9%
CN(C)S(=O)(=O)N1CCN(CC(O)COc2ccc3cc(Br)ccc3c2)CC1 (stereo unspecified)	-7%
N#C/C(=C(\O)C(=O)O)c1ccc(-c2cccc3ccccc23)cc1	1%[11.4 µM]
O=C1CC(c2ccc3c(c2)OCO3)Sc2nc3ccccc3n21 (stereo unspecified)	-9%
O=c1[nH]c(SCc2ccccc2[N+](=O)[O-])nc2nc[nH]c12	6%&0%[11.4 µM]
COc1ccc(CNc2nc(-c3cccnc3)nn2C(=O)c2cccs2)cc1	?
Cc1cccc2cc3c(N)c(C#N)sc3nc12	-15%
COc1ccc(C2N3CC4(C)CN2CC(C)(C3)C4)cc1OC (stereo unspecified)	2%
Cc1ccc(S(=O)(=O)NC(CC(=O)O)c2ccccc2)c(C)c1 (stereo unspecified)	-1%
CCOCCCNc1nc(=S)[nH]c2cc(OC)c(OC)cc12	-12%
O=C1CSC(c2cccs2)N1c1ccccc1 (stereo unspecified)	1%
Cc1nn(-c2ccccc2)c2c1C(c1ccco1)C(C#N)=C(N)O2 (stereo unspecified)	-12%
CCN1CCN(Cc2c(O)ccc3c(=O)c(-c4ccccc4OC)coc23)CC1	32µM*
CCCCOC(=O)Cn1cnc2ccc(Br)cc2c1=O	-5%
CC1(C)NC(=O)N(CCOc2cccc(Cl)c2Cl)C1=O	5%
CCOC(=O)N1CCN(C(=O)c2cn(-c3ccc(C)c(C)c3)c(=O)c3ccccc23)CC1	-12%
Cc1ncc(C23CC4CC(CC(C4)C2)C3)[nH]1	10%
N=C1N=C(N)c2cc3ccccc3cc21	32µM*
CCOC(=O)Cn1c(=O)oc2cc(S(=O)(=O)NCc3ccccn3)ccc21	10%
CCC(C)NS(=O)(=O)c1ccc(NS(C)(=O)=O)cc1 (stereo unspecified)	5%
O=C(NCc1ccco1)C(c1cccs1)N(Cc1ccccc1)C(=O)Cn1nnc2ccccc21 (stereo unspecified)	-10%
COC(=O)[C@@H]1CC[C@H](C)[C@@H](c2ccc(C)cc2)N1C(=O)c1ccc(/C=N\O[C@@H](C)c2cn([C@H](CO)Cc3ccccc3)nn2)cc1	-3%&-1%[11.4 µM]
O=C(CSc1nccc(=O)[nH]1)N1CCCc2ccccc21	3%
COC(=O)/C(=C1/Oc2cc3c(cc2S1)OCO3)C(F)(F)F	-19%
Cc1ccc(CSC2=NCCN2C(=O)c2ccco2)cc1	-2%
O=C(CSc1nnc(-c2ccncc2)n1Cc1ccco1)Nc1ccccc1Cl	7%
O=C(C[n+]1ccc2ccccc2c1)c1ccc2ccc3ccccc3c2c1	-8%[11.4 µM]
COc1ccc(N(C)C(=O)CCC(=O)Nc2ccc3nc(N4CCOCC4)cc(C)c3c2)c(OC)c1	25µM*
CCOc1ccccc1N1C(=O)c2ccc(C(=O)Nc3cccnc3)cc2C1=O	-14%
CCOC(=O)c1cccc(NC(=O)CSc2nnc(-c3ccncc3)n2CCCOC)c1	-5%
CC(=O)c1c(C)[nH]c(C(=O)OC2CCOC2=O)c1C (stereo unspecified)	6%
CCn1c(C)c2c(C)nnc(C)c2c1C	?
Cc1ccc(S(=O)(=O)NC(=NCC(=O)O)c2ccccc2)cc1	3%

Screens as filed in PubChem BioAssay.
